Screens deposited in PubChem by National Center for Advancing Translational Sciences (NCATS).
GLA inh pH 4.5 – alpha-galactosidase A (human) inhibition, pH 4.5. P06280. purified enzyme, 4-MU-alpha-Gal fluorescence, pH 4.5. activity change, negative = inhibition, % at 105 µM. 230,000 tested, under 10 active. AID 1467; inconclusive = small, poorly fitted or top-dose-only inhibition, or a rising curve; inactive = flat fitted curve, though single readings scatter; no compound was filed as active;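 further: 0% = full activity with enzyme and -100% = basal without enzyme; dose as in the result columns while the protocol names 77 µM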
Target sequence (P06280 whole entry, looked up): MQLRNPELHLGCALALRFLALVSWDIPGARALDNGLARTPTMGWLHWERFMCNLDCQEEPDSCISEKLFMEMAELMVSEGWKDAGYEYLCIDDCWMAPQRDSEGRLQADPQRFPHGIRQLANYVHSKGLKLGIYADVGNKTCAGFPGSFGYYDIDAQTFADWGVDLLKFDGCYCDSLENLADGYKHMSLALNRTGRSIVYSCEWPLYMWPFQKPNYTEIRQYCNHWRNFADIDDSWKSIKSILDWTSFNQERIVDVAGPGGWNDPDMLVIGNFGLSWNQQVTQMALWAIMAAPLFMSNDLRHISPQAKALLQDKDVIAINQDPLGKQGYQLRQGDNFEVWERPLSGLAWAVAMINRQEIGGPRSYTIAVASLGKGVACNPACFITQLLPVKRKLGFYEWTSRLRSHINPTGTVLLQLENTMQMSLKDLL
Rango dissoc inh – inhibition of RanGTP-driven Rango-importin beta dissociation | O95149+P62826 | Biochemical FRET Rango-importin beta, RanGTP-induced dissociation | Potency, µM (highest dose often 46.1 µM), inactives show top-dose activity change, negative = inhibition | actives 0.071% (n = 340,000) | AID 540253; active means falling FRET ratio curve, often poorly fitted, with flat reads before Ran was added; inconclusive means other falling curves, or compound fluorescence or quenching; inactive means flat or rising ratio curve;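 further: potency means the concentration at half of the fitted maximal effect; % of control where 0% means no effect; nearly all actives have a fitted effect of over 45% in size; -100% = wells without RanGTP and RCC1; the record marks most hits as doubtful in a second field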
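FRET read at 45 min, room temperature: inhibitors block the CFP/YFP signal rise when RanGTP (0.6 uM Ran, 2 mM GTP, 0.2 uM RCC1) frees Rango (0.1 uM) from importin beta (0.25 uM). Pre-read after 5 min compound exposure flags interference.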
miR-21 FLuc – miR-21 reporter, rising signal; HeLa miR-21 FLuc reporter, luciferase, 48 h; Potency, µM (top dose mostly 38.3 µM), without a hit: at the top dose reporter change, positive = more light; 340,000 tested, under 10 active; active = well fitted rising curve with a large enough effect; inconclusive = small, poorly fitted or top-dose-only effect; inactive = no such curve, though single readings can be large or run the other way;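 further: % of control where 0% means no effect; miR-21 action dims this reporter so a rising signal means less miR-21 action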
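HeLa cells endogenously expressing miR-21, stably carrying CMV-driven firefly luciferase with a downstream miR-21 binding site, 2000 cells/well. Titrations up to approximately 40 uM, 48 hours; luciferase luminescence read.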
Rango complex inh – inhibitors of Rango-importin beta complex formation; Q14974; Rango CFP/YFP FRET sensor + importin beta, 45 min; Potency, µM (top dose mostly 92.2 µM), inactives show at the highest dose inhibition of complex formation; actives 0.031% (n = 340,000); AID 540263; active = rising FRET ratio curve, often small or poorly fitted; inconclusive = mostly compound fluorescence or quenching in the first reads; inactive = flat curves in all reads;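 further: potency means the concentration at half of the fitted maximal effect; 0% = DMSO wells and 100% = buffer wells lacking importin beta; nearly all actives have a fitted effect of over 15% in size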
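FRET biosensor Rango (snurportin 1 IBB between N-terminal EYFP and C-terminal Cerulean), 50 nM in PBS/1 mM DTT/0.02% Tween-20/0.1% BSA, preincubated 5 min RT with compound; 0.125 microM importin beta added, 45 min RT, CFP/YFP FRET ratio read.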
* marks the source's active call; other numbers are inactive results; & = joins results of further samples. These rows are one share of the data; the hit share may differ from the screen's.

N/C(=N\S(=O)(=O)c1cccs1)c1ccccc1 was read as GLA inh pH 4.5 2, Rango dissoc inh 3%, miR-21 FLuc 1% and Rango complex inh -0.6%.
For CN(CC(=O)Nc1ccc(Cl)cc1)c1ccc(S(=O)(=O)N2CCCCC2)cc1[N+](=O)[O-] the results were GLA inh pH 4.5 -28, Rango dissoc inh 2%, miR-21 FLuc 17% and Rango complex inh 0.4%.
CC(C)C(=O)NN(C(=O)C(C)C)c1nc2ccccc2s1 was read as GLA inh pH 4.5 3, Rango dissoc inh 11%, miR-21 FLuc 3% and Rango complex inh 0.0%.
`COc1cccc(NC(=O)c2cn(C)c(=O)c3cc(OC)c(OC)cc23)c1` gave GLA inh pH 4.5 -3, Rango dissoc inh -1%, miR-21 FLuc -3% and Rango complex inh 0.2%.
`O=C(c1cc2cc(Br)ccc2oc1=O)N1CCCC1` gave GLA inh pH 4.5 11, Rango dissoc inh 8%, miR-21 FLuc -3% and Rango complex inh 1.4%.
For Cc1cccn2c(CN3CCCN(C=O)CC3)c(C(=O)N(C)CCc3ccccc3)nc12 the results were GLA inh pH 4.5 1, Rango dissoc inh 0%, miR-21 FLuc -4% and Rango complex inh 0.9%.
CC1Cc2ccccc2N1C(=O)C1CC(=O)N(c2ccccc2)C1 (centres undefined) was read as Rango dissoc inh 16%, miR-21 FLuc 5% and Rango complex inh 1.0%.
CCCNC(=O)c1ccc2c(c1)CCN2S(C)(=O)=O was read as GLA inh pH 4.5 -5, Rango dissoc inh 2%, miR-21 FLuc -3% and Rango complex inh 2.2%.
Cc1ccc(CNC(=O)C2CC3Cn4c(nc5cc6ccccc6cc54)C3N2C)o1 (centres undefined) was read as GLA inh pH 4.5 -1, Rango dissoc inh -8%, miR-21 FLuc -5% and Rango complex inh -0.8%.
Cc1cc(C)n(-c2nc3c(c(=O)[nH]c(=O)n3C)n2C(C)C)n1 was read as GLA inh pH 4.5 2, Rango dissoc inh 10%, miR-21 FLuc -19% and Rango complex inh 1.7%.
Screening Cc1cc(C)cc(-n2cc(C(=O)O)c(=O)cc2C)c1 returned GLA inh pH 4.5 3, Rango dissoc inh 24%, miR-21 FLuc -5% and Rango complex inh 3.3%.
`COc1ccc2c3c(cccc13)OCC2=O` gave GLA inh pH 4.5 0, Rango dissoc inh inconclusive, miR-21 FLuc -13% and Rango complex inh inconclusive.

5 compounds drawn at random from those above:
`COc1cccc(NC(=O)c2cn(C)c(=O)c3cc(OC)c(OC)cc23)c1` gave GLA inh pH 4.5 -3, Rango dissoc inh -1%, miR-21 FLuc -3% and Rango complex inh 0.2%.
For CN(CC(=O)Nc1ccc(Cl)cc1)c1ccc(S(=O)(=O)N2CCCCC2)cc1[N+](=O)[O-] the results were GLA inh pH 4.5 -28, Rango dissoc inh 2%, miR-21 FLuc 17% and Rango complex inh 0.4%.
CC1Cc2ccccc2N1C(=O)C1CC(=O)N(c2ccccc2)C1 (centres undefined) was read as Rango dissoc inh 16%, miR-21 FLuc 5% and Rango complex inh 1.0%.
Cc1ccc(CNC(=O)C2CC3Cn4c(nc5cc6ccccc6cc54)C3N2C)o1 (centres undefined) was read as GLA inh pH 4.5 -1, Rango dissoc inh -8%, miR-21 FLuc -5% and Rango complex inh -0.8%.
CCCNC(=O)c1ccc2c(c1)CCN2S(C)(=O)=O was read as GLA inh pH 4.5 -5, Rango dissoc inh 2%, miR-21 FLuc -3% and Rango complex inh 2.2%.

(continued)
For CCOC(=O)c1c(C=O)c2ccccc2n1CC the results were GLA inh pH 4.5 -1, Rango dissoc inh -1%, miR-21 FLuc 0% and Rango complex inh -4.3%.
`O=C(NCC1CCCO1)c1cn(Cc2ccccc2)nc1-c1ccc(Cl)cc1` (centres undefined) gave Rango dissoc inh -4% and Rango complex inh -0.6%.
O=C(CCCOc1cccc(Br)c1)NCCOc1ccccc1 was read as Rango dissoc inh -11%, miR-21 FLuc -13% and Rango complex inh -5.2%.
CN1CCN(c2ccc(S(=O)(=O)N3CCOCC3)cc2)CC1 was read as Rango dissoc inh -9%, miR-21 FLuc 1% and Rango complex inh 2.8%.
`CSc1cccc(NC(=O)c2c(Cl)cnn2C)c1` gave GLA inh pH 4.5 7, Rango dissoc inh 22%, miR-21 FLuc -26% and Rango complex inh 2.0%.
For Cc1nc2ccccc2c(=O)n1/N=C/c1ccc(N(C)C)cc1 the results were GLA inh pH 4.5 -10, Rango dissoc inh 5%, miR-21 FLuc -20% and Rango complex inh -4.2%.
`Cc1cccc(NS(=O)(=O)c2cccc3nsnc23)c1` gave GLA inh pH 4.5 -7, Rango dissoc inh 5%, miR-21 FLuc -3% and Rango complex inh -2.1%.
Screening CCNc1c([N+](=O)[O-])c(=O)oc2ccccc12 returned GLA inh pH 4.5 -3, Rango dissoc inh 18%, miR-21 FLuc 0% and Rango complex inh 7.7%.
Screening Cc1ccc(S(=O)(=O)NCc2cccnc2)cc1C returned Rango dissoc inh 18%, miR-21 FLuc 2% and Rango complex inh -5.7%.
Screening c1ccc2nc3c(nc2c1)[nH]c1ccccc13 returned GLA inh pH 4.5 -10, Rango dissoc inh inconclusive, miR-21 FLuc -38% and Rango complex inh inconclusive.
CCOC(=O)/C(C#N)=C/N1CCOCC1 was read as GLA inh pH 4.5 4, Rango dissoc inh -9%, miR-21 FLuc -2% and Rango complex inh 3.8%.
For C=CCC[C@H](Cc1ccc(F)cc1)C(=O)OC[C@@H](Cc1c[nH]c2ccccc12)NC(=O)[C@@H](CC=C)CC(=O)N[C@H](CO)Cc1ccccc1 the results were Rango dissoc inh 0% and Rango complex inh 3.4%.
Cn1c(=O)c2c(nc(CN3CCN(CCO)CC3)n2Cc2ccccc2Cl)n(C)c1=O was read as Rango dissoc inh 5%, miR-21 FLuc 2% and Rango complex inh -2.7%.
For O=C(O)c1ccc(-c2ccc(O)c(F)c2)cc1 the results were Rango dissoc inh 7%, miR-21 FLuc -7% and Rango complex inh -0.1%.
Screening Cc1c(C(=O)O)cccc1-n1c(C)cc(/C=C(/C#N)C(=O)NCc2ccccc2)c1C returned GLA inh pH 4.5 5, Rango dissoc inh -11%, miR-21 FLuc -11% and Rango complex inh inconclusive.
Screening Cc1ccc(CNC(=O)CCS(=O)(=O)c2cccc3nonc23)cc1 returned GLA inh pH 4.5 -2, Rango dissoc inh 27%, miR-21 FLuc -3% and Rango complex inh 5.9%.
`COCc1ccc([C@@H]2C[C@H]3CN(Cc4cccc(Cl)c4)C(=O)[C@]34CCCN24)o1` gave GLA inh pH 4.5 -2, Rango dissoc inh -3%, miR-21 FLuc -10% and Rango complex inh -1.5%.
Screening COc1cc(NC(=S)N2CCN(c3ccccn3)CC2)cc(OC)c1 returned GLA inh pH 4.5 0, Rango dissoc inh 20%, miR-21 FLuc 0% and Rango complex inh 1.7%.
Screening CN1CCN(/C=N/c2c(C#N)cnn2-c2ccccc2)CC1 returned GLA inh pH 4.5 1, Rango dissoc inh 14%, miR-21 FLuc -3% and Rango complex inh -2.7%.
Screening CN(C)S(=O)(=O)c1cccc(COc2ncnc3c(Cl)cc(Cl)cc23)c1 returned Rango dissoc inh -1%, miR-21 FLuc 1% and Rango complex inh -0.1%.
For Cn1c(=O)n(CCc2ccccc2)c2ccccc21 the results were Rango dissoc inh 13%, miR-21 FLuc -31% and Rango complex inh 0.1%.
O=C1CSC(=S)N1N=C1CCCCCC1 was read as GLA inh pH 4.5 3, Rango dissoc inh 6%, miR-21 FLuc 2% and Rango complex inh 1.7%.
Screening COC(=O)C1CC(Cl)CN1c1ncc(C(F)(F)F)cc1Cl (centres undefined) returned GLA inh pH 4.5 1, Rango dissoc inh -8%, miR-21 FLuc -3% and Rango complex inh 2.0%.
`CC12CCC(=O)N1C(C(=O)OCC(=O)Nc1sccc1C#N)CS2` (centres undefined) gave GLA inh pH 4.5 2, Rango dissoc inh -10%, miR-21 FLuc -5% and Rango complex inh inconclusive.
CCC/C(O)=C1\C(=O)CC(C)(C)CC1=NCc1ccccc1 was read as GLA inh pH 4.5 2, Rango dissoc inh -2%, miR-21 FLuc 7% and Rango complex inh -5.1%.
For Cc1nn(Cc2ccccc2)c(C)c1NC(=O)CSc1nnc(-c2cc(Cl)ccc2O)n1C the results were GLA inh pH 4.5 -7, Rango dissoc inh -17%, miR-21 FLuc 2% and Rango complex inh -1.8%.
Screening COC(=O)c1cc(C)sc1NC(=O)C1CC(=O)NN1Cc1ccccc1 (centres undefined) returned GLA inh pH 4.5 -4, Rango dissoc inh 22%, miR-21 FLuc -14% and Rango complex inh -1.5%.
Screening CCOC(=O)CSc1nc(N)c(C#N)c(-c2ccc(OCC)cc2)c1C#N returned GLA inh pH 4.5 1, Rango dissoc inh -11%, miR-21 FLuc -36% and Rango complex inh -0.2%.
For CCn1c(SCC(=O)Nc2ccc(C(C)=O)cc2)nnc1C1CC1 the results were Rango dissoc inh -24%, miR-21 FLuc -3% and Rango complex inh -0.2%.
COC(=O)CSc1snnc1-c1ccc(Cl)c(Cl)c1 was read as GLA inh pH 4.5 -4, Rango dissoc inh 7%, miR-21 FLuc -1% and Rango complex inh 1.1%.
CCOc1ccc(NC(=O)CN(C)C(=O)C2CC2C)cc1OCC (centres undefined) was read as Rango dissoc inh -7% and Rango complex inh -3.2%.
Cc1ccc(C2CC2c2n[nH]c(=S)n2-c2cccc(Cl)c2)cc1 (centres undefined) was read as GLA inh pH 4.5 -14, Rango dissoc inh -2%, miR-21 FLuc 2% and Rango complex inh -0.2%.
c1ccc2c(c1)ncn2CCC1CCCCC1 was read as GLA inh pH 4.5 -9, Rango dissoc inh 3%, miR-21 FLuc 0% and Rango complex inh -4.4%.
`CCn1nc(C)c(NC(=O)c2cc(Br)ccc2Cl)c1C` gave GLA inh pH 4.5 0, Rango dissoc inh 18%, miR-21 FLuc -5% and Rango complex inh 7.6%.
CCOC(=O)N1CCC(NC(=O)CS(=O)(=O)Cc2nc(-c3cccc(OC)c3)oc2C)CC1 was read as GLA inh pH 4.5 11, Rango dissoc inh -6%, miR-21 FLuc -1% and Rango complex inh -4.8%.
`COc1c(NC(C)=O)c2c(c([N+](=O)[O-])c1OC)C(=O)OC2` gave Rango dissoc inh inconclusive and Rango complex inh -1.2%.
COc1ccc(CCN(C)C(=O)CN2C(=O)c3ccccc3S2(=O)=O)cc1OC was read as GLA inh pH 4.5 -1, Rango dissoc inh 2%, miR-21 FLuc -3% and Rango complex inh -0.7%.
`O=[N+]([O-])c1ccc(COc2cccc(CNc3ccc(Br)cc3)c2)cc1` gave GLA inh pH 4.5 -24, Rango dissoc inh -15%, miR-21 FLuc -2% and Rango complex inh -0.9%.
For CCN(CC)c1c2c(c(C#N)c3nc4ccccc4n13)CCC2 the results were GLA inh pH 4.5 5, Rango dissoc inh inconclusive, miR-21 FLuc -5% and Rango complex inh inconclusive.
For CC[C@@]12C(=O)N(c3ccc(C)cc3)C(=O)N1[C@H](c1cccc(C)c1)[C@@H]1C(=O)N(Cc3ccccc3)C(=O)[C@@H]12 the results were Rango dissoc inh 0% and Rango complex inh 0.4%.
`COC(=O)C1(C)NCCc2c1[nH]c1ccccc21` (centres undefined) gave Rango dissoc inh 0% and Rango complex inh 0.3%.
`COC(=O)C1=C(C)N(Cc2ccccc2)C(=NCCc2cccnc2)N[C@H]1c1ccccc1` gave Rango dissoc inh -11%, miR-21 FLuc 16%&15% and Rango complex inh 4.4%.
Cc1cc(C)cc(NC(=O)c2ccc3c(c2)CCN3S(C)(=O)=O)c1 was read as Rango dissoc inh 0%, miR-21 FLuc -17% and Rango complex inh -0.7%.
For COc1cc(NC(=S)Nc2ccccn2)c(OC)cc1Cl the results were GLA inh pH 4.5 2, Rango dissoc inh -3%, miR-21 FLuc -7% and Rango complex inh 1.4%.
`COc1cc(/C=N/NC(=O)c2cccnc2)cc(Br)c1O` gave Rango dissoc inh 8%, miR-21 FLuc 1% and Rango complex inh 2.7%.
Screening Cn1c(CNC(=O)CNC(=O)Cc2ccc(F)cc2)cc(=O)n(C)c1=O returned Rango dissoc inh inconclusive, miR-21 FLuc 0% and Rango complex inh 3.4%.
